Screening data from PubChem.
YopH PTP inh = YopH tyrosine phosphatase inhibitors, primary screen, biochemical, fluorescence Ex485/Em525; YopH tyrosine phosphatase [Yersinia enterocolitica]; inhibition, %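 (about 10 µM by stock and volumes)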; 140,000 compounds, 0.16% hits; AID 898, 2007;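 active means inhibition of 50% or more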;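 further: controls were vehicle for no effect and minimum signal wells for full effect; inactives centre near -20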
Arbovirus anti = antivirals against arbovirus infection, primary screen, cell-based, full library, 10K replicate subset; inhibition, % at 10 µM; arbovirus infection cell-based antiviral screen; 200,000 compounds, 0.37% hits; AID 1251, 2008;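 active means inhibition from about 30%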;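 further: bluetongue infection of BSR cells; cell survival read as ATP light after 72 h; 0% = infected wells without compound and 100% = uninfected wells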
Mtb bLac sens = beta-lactam sensitization of Mtb H37Rv, H37Rv | M. tuberculosis H37Rv growth with meropenem, percent inhibition; hits of this screen are not shown here | inhibition, % at 25 µM | 330,000 compounds, 0.27% hits | AID 434955, 2010;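 active means about 74% or more and at least 40 points above the plate without the antibiotic, then above 30% in a dose series; inconclusive means first-round hits that could not be retested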;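 further: growth measured after seven days incubation then overnight dye step; 0% = bacteria only wells and 100% = bacteria with antibiotic; twin plates without the antibiotic show which effects depend on it; some results filed as inactive read as strong as hits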
Mtb growth = M. tuberculosis H37Rv growth inhibitors, H37Rv strain (AID 1626); M. tuberculosis H37Rv growth inhibition; higher % means a stronger effect; one-dose inhibition, % at 10 µM; IC50 in µM for titrated hits; 220,000 compounds, 0.95% hits;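 active means confirmed in a dose series; inconclusive means inhibition above 80% but not taken into the dose series; inactive means below 80% or under 30% at every dose of the series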;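 further: bacteria incubated seven days before Alamar blue readout; 0% = bacteria only wells and 100% = bacteria with antibiotic wells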
RecA splice inh = Mtb RecA intein splicing inhibitors, primary screen, biochemical, fluorescence, HTS | Protein RecA (Mycobacterium tuberculosis (strain ATCC 25618 / H37Rv)), P9WHJ3 | cell-free RecA intein splicing | inhibition, %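 (about 9 µM by stock and volumes)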 | 290,000 compounds, 0.75% hits | AID 2221, 2009; in the data active means inhibition above about 30%; inconclusive means no clear call, values can overlap the other calls;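 further: 0% = vehicle wells and 100% = reference inhibitor control wells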
Target sequence (P9WHJ3 whole entry, looked up, canonical isoform): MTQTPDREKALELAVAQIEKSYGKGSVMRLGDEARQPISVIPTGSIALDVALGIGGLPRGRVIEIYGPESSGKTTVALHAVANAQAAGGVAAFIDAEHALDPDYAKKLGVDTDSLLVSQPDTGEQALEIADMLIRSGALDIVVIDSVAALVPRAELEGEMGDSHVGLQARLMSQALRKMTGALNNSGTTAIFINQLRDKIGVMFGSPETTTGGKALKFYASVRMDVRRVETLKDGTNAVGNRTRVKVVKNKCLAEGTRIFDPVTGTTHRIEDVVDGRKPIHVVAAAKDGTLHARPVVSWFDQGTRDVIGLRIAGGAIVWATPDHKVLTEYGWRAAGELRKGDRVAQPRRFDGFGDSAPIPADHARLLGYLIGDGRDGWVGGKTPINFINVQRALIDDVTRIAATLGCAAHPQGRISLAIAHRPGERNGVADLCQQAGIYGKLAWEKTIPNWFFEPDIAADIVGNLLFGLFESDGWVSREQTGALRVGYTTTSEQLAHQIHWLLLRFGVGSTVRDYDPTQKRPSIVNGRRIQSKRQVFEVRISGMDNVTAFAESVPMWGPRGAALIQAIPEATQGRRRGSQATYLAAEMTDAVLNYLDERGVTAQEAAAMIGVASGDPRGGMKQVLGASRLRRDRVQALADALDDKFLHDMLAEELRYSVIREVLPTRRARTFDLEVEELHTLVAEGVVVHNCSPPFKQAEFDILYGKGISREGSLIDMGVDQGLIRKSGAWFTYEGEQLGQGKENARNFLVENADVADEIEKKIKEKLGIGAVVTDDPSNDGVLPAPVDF
Arbovirus anti repeat = also measured in Arbovirus anti; calls as there; inhibition, %; measured here: 10K subset replicate screen; many hits read low in the repeat;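 first of two repeat runs on a subset; 0% = infected and 100% = uninfected wells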
* marks the source's active call; other numbers are inactive results; ? = inconclusive; / = not tested or not shown. Some of the compounds tested; rates above refer to the full screens.

SMILES	YopH PTP inh	Arbovirus anti	Mtb bLac sens	Mtb growth	RecA splice inh	others
O=C(O)/C=C/c1ccc(S(=O)(=O)NCc2ccco2)cc1	/	18	-1	11%	1.7
COc1ccc(S(=O)(=O)N2CCC(C(N)=O)CC2)cc1	-39	0	-4	-3%	1.8	Arbovirus anti repeat=0
Cc1ccccc1C1NC(=S)NC2=C1C(=O)CC(C)(C)C2 (stereo not given)	/	-2	-7	7%	-1.2
COc1ccc(OCc2cc(C(=O)NCCN3CCCC(O)C3)no2)c(Cl)c1 (stereo not given)	/	/	-2	/	0.8
COc1ccc(S(=O)(=O)Nc2cc(C(=O)NC3CCCCCC3)ccc2N2CCOCC2)cc1	-37	-8	-5	-1%	/
CCc1nn(C(C)C(=O)NCc2ccc(Cl)cc2)c(=O)c2cc3occc3n12 (stereo not given)	/	/	-4	/	1.0
COc1ccc(NC(=O)CSc2nc3ccsc3c(=O)n2CCCCCC(=O)O)cc1	/	2	6	-7%	-0.9
CSc1nc2ccc(NC(=O)c3c(-c4ccccc4)noc3C)cc2s1	/	/	-3	5%	1.7
CCc1cc(C(=O)NNC(=S)NCc2ccccc2)cs1	-30	-13	3	6%	6.5
CC(C)CNC(=O)c1cccc(NC(=O)C(C)C)c1	/	4	-6	6%	0.4
Cc1ccc(NC(=O)NNC(=O)Cn2nc(-c3ccccc3)c(-c3ccccc3)c(C#N)c2=O)cc1	-24	-16	44	0%	-2.8
CCCCCn1c(=O)c(C(=O)Nc2cc(C)ccn2)c(O)c2ccccc21	/	/	40	/	-0.1

A draw from above in order of SMILES length, low to high.
SMILES	YopH PTP inh	Arbovirus anti	Mtb bLac sens	Mtb growth	RecA splice inh	others
O=C(O)/C=C/c1ccc(S(=O)(=O)NCc2ccco2)cc1	/	18	-1	11%	1.7
CSc1nc2ccc(NC(=O)c3c(-c4ccccc4)noc3C)cc2s1	/	/	-3	5%	1.7
CCCCCn1c(=O)c(C(=O)Nc2cc(C)ccn2)c(O)c2ccccc21	/	/	40	/	-0.1
COc1ccc(NC(=O)CSc2nc3ccsc3c(=O)n2CCCCCC(=O)O)cc1	/	2	6	-7%	-0.9

The list goes on:
SMILES	YopH PTP inh	Arbovirus anti	Mtb bLac sens	Mtb growth	RecA splice inh	others
Cc1ccc(NC(=O)C(C)N=C2NS(=O)(=O)c3ccccc32)cc1F (stereo not given)	/	/	-6	-1%	-3.7
Cc1nc2nc(SCC(=O)C(C)(C)C)[nH]c2cc1Br	-29	0	-4	-4%	-20
c1ccc(N2CCN(Cc3nnnn3C3CCCCC3)CC2)cc1	-38	10	0	3%	0.8
COCCNC(=O)c1ccc(S(=O)(=O)c2ccc(Cl)cc2)c(NC(C)=O)c1	/	/	-6	/	-2.9
COc1ccccc1NC(=O)C/C(C)=N/NC(=O)c1ccccn1	/	/	99	/	-3.3
COc1cccc([C@@H]2Oc3ccc(OC)cc3C(=O)[C@H]2OC(=O)NCc2ccc3c(c2)OCO3)c1	6	7	26	/	0.1
O=C(N/N=C\C=C\c1ccc2c(c1)OCO2)c1cccnc1	-23	-4	2	5%	-5.3
COc1ccccc1Cn1c(=S)[nH]c2cc(C(=O)NCc3cccnc3)ccc2c1=O	/	-21	1	-6%	1.1
CN(C)/C=C/C(=O)c1cccc(Cl)c1	12	1	1	9%	-1.4
N#Cc1ccccc1S(=O)(=O)N1CCN(S(=O)(=O)c2ccc(Br)c(C(=O)O)c2)CC1	/	/	2	/	-8.3
Cc1ccccc1CSCC(=O)N/N=C/c1cccs1	-32	4	-3	3%	/
CC(C)c1ccccc1NC(=O)COC(=O)c1cc([N+](=O)[O-])ccc1N1CCOCC1	/	/	1	/	0.1
Cc1nc(N2CCN(C)CC2)c2c(C)c(C(=O)Nc3ccc(F)cc3)sc2n1	-5	-22	-14	-7%	-0.1
CN(C)S(=O)(=O)n1cc(/C=C(\NC(=O)c2ccccc2F)C(=O)N2CCOCC2)c2ccccc21	/	/	5	/	-0.4
O=C(c1ccccc1-c1ccccc1)N1CCOCC1	-2	10	-4	-7%	0.9
c1ccc(CSc2nnc(-c3ccco3)n2Cc2ccccc2)cc1	-4	-8	-5	-4%	1.7
CCCCC(=Nc1ccccc1OC)C1=C(O)CC(c2ccccc2)CC1=O (stereo not given)	-35	-9	11	2%	2.5
COc1cc(/C=N/NC(=S)NCCN2CCOCC2)ccc1O	-33	6	5	2%	-4.6
COc1ccc(C(=O)NC(=O)COC(=O)c2ccc3ncsc3c2)cc1	-2	8	7	-5%	9.7
O=C(c1ccc2nc(N3CCOCC3)sc2c1)N1CCC(Cc2ccccc2)CC1	-38	1	1	12%	7.2
S=c1[nH]ncn1/N=C/c1ccc(Br)cc1	-56	1	34	-7%	-0.3
N#Cc1nc(-c2ccc(Cl)cc2)oc1NCc1ccco1	-23	4	20	5%	-0.1
O=C1c2ccccc2S(=O)(=O)c2cc(N3CCC4(CC3)OCCO4)ccc21	/	/	1	-4%	-5.5
Cn1c(C(=O)N2CCN(c3ncccn3)CC2)cc2c(=O)n(C)c3ccccc3c21	-4	-1	-8	-4%	-1.5	Arbovirus anti repeat=-9
COc1cc(S(=O)(=O)N2CCC(c3nc4ccccc4s3)CC2)ccc1S(=O)(=O)N1CC(C)CC(C)C1 (stereo not given)	28	-3	-3	10%	-1.5
O=C(NCC(O)c1ccccc1)c1ccc(Cl)c(S(=O)(=O)N2CCCC2)c1 (stereo not given)	/	/	-5	/	1.7
COc1cccc(C(=O)Nc2c(C)nn(-c3ccccc3)c2C)c1	/	-2	0	3%	-1.0
CC(C)CC(N=Cc1c(O)c2ccccc2oc1=O)C(=O)O (stereo not given)	/	27	1	-7%	-1.0
COc1ccc(-c2nnc(SCC(=O)N3CCOCC3)n2C)cc1OC	-19	-5	0	-13%	0.3
CCOC(=O)C(C)Oc1cccc2c(=O)n(CC(=O)NCc3ccccc3)ccc12 (stereo not given)	/	/	4	1%	-2.2
Cc1ncc(C[n+]2ccc(C)c(C)c2)c(N)n1	/	/	-1	/	-3.8
Cc1ccc(/C(N)=N/OC(=O)c2ccc(C)cc2Cl)cc1	-29	-2	70	12%	0.4
O=C(N/N=C/c1cccnc1)C(O)c1ccccc1 (stereo not given)	-8	-9	-4	-2%	/
CCC1CCCCN1CCNC(=O)CCS(=O)(=O)c1ccc(Br)cc1 (stereo not given)	-15	-4	-6	-2%	1.9
Cc1cccc(OS(=O)(=O)NC(=O)OCC2CCCN3CCCCC23)c1 (stereo not given)	/	4	-2	-12%	-4.9
Oc1ccc2ccccc2c1N=Nc1nccs1	/	/	100	?	-9.7
Cc1cc(/C=N/NC(N)=O)c(C)c(CO)c1	-28	10	-4	/	-1.4
CCOc1ccc(C(=O)Nc2ccc(CN3CCOCC3)cc2)cc1Br	/	/	0	/	1.3
CC1CC(C)CN(CCOc2ccc(Br)cc2)C1 (stereo not given)	11	-8	-1	1%	-0.6
COc1cc(NC(=S)NC(=O)c2ccc(C(C)(C)C)cc2)ccc1NC(=O)c1cccs1	1	1	53	15%	0.7
COC(=O)C1=C(NC(=O)CCCCl)CCS1	-40	2	-2	-6%	-8.8
O=C(NC(Cc1ccccc1)C(=O)N1CCc2ccccc2C1)c1ccccc1 (stereo not given)	/	/	-2	/	4.6
COc1cc(OC)cc(-c2nnc(SCc3ccc(C(=O)O)cc3)o2)c1	/	/	4	/	1.2
CC(NC(=O)C1CC1)C(c1cccs1)N1CCN(c2ccccc2)CC1 (stereo not given)	3	6	-8	-6%	3.4	Arbovirus anti repeat=8
COc1ccc(/C=C2\SC(=O)N(CCC(=O)N3CCN(C)CC3)C2=O)cc1	/	/	6	/	1.6
COc1cc(OC)c2nc(C)c3c(c2c1)N(c1ccc(O)cc1)CC3	7	-18	5	/	0.9
CC1=C(C(=O)OC(C)C)C(c2cccnc2)n2ncnc2N1 (stereo not given)	/	-3	0	7%	-0.4	Arbovirus anti repeat=-2
CC(=O)c1ccc(N=Nc2ccc(N(C)C)cc2)cc1	/	-28	56	-1%	-1.2
CN1CCN(c2c(C#N)c(C(F)(F)F)nn2C)CC1	/	5	-1	-2%	-1.4
Cc1ccc(S(=O)(=O)Nc2ccc(Cl)cc2)cc1NC(=O)c1cc2c(s1)CCCC2	-18	-22	9	1%	1.6
CCC(=O)Nc1cc(C(=O)OCC(=O)c2ccccc2Cl)ccc1C	-19	0	-13	-6%	3.3
Nc1cc([N+](=O)[O-])ccc1N1C(=O)CCCC1=O	/	/	-9	-17%	3.3
Cc1ccc(N2C(=O)CC(NNC(=O)c3cccc(S(=O)(=O)N4CCCC4)c3)C2=O)cc1 (stereo not given)	-28	-4	10	5%	1.2
COc1cc2c(cc1OC)C(=S)NC1(CCCC1)C2	/	0	-8	10%	-2.8
Cc1cccc(-c2cccc(NC(=O)C3CCCN(C(=O)c4csc(C)n4)C3)c2)c1 (stereo not given)	/	/	11	/	9.9
Cc1cccc(-n2c(CNC(=O)c3cccc([N+](=O)[O-])c3C)n[nH]c2=S)c1	/	4	5	-5%	-2.7
CN(C)c1ccc(/C=N/NC(=O)C(O)(c2ccccc2)c2ccccc2)o1	-15	-5	-11	-12%	0.4
O=C(CSc1nc2ccc(NC(=O)c3ccccc3C(=O)O)cc2s1)Nc1ccc(F)c([N+](=O)[O-])c1	/	/	-3	/	0.0
CN(CCc1ccccn1)C(=O)CC1C(=O)NCCN1Cc1ccc(-c2ccccc2)cc1 (stereo not given)	/	0	-5	-2%	1.3
COC(=O)c1cc(S(=O)(=O)N2c3ccccc3CC2C)c[nH]1 (stereo not given)	/	/	-6	/	3.2

Compounds above with a thiophene ring, fused or not:
SMILES	YopH PTP inh	Arbovirus anti	Mtb bLac sens	Mtb growth	RecA splice inh	others
COc1ccc(NC(=O)CSc2nc3ccsc3c(=O)n2CCCCCC(=O)O)cc1	/	2	6	-7%	-0.9
CCc1cc(C(=O)NNC(=S)NCc2ccccc2)cs1	-30	-13	3	6%	6.5
Cc1ccccc1CSCC(=O)N/N=C/c1cccs1	-32	4	-3	3%	/
Cc1nc(N2CCN(C)CC2)c2c(C)c(C(=O)Nc3ccc(F)cc3)sc2n1	-5	-22	-14	-7%	-0.1
COc1cc(NC(=S)NC(=O)c2ccc(C(C)(C)C)cc2)ccc1NC(=O)c1cccs1	1	1	53	15%	0.7
CC(NC(=O)C1CC1)C(c1cccs1)N1CCN(c2ccccc2)CC1 (stereo not given)	3	6	-8	-6%	3.4	Arbovirus anti repeat=8
Cc1ccc(S(=O)(=O)Nc2ccc(Cl)cc2)cc1NC(=O)c1cc2c(s1)CCCC2	-18	-22	9	1%	1.6

Carrying on.
SMILES	YopH PTP inh	Arbovirus anti	Mtb bLac sens	Mtb growth	RecA splice inh	others
Cc1c(NC(=O)c2c(F)c(F)c(F)c(F)c2F)c(=O)n(-c2ccccc2)n1C	-17	-2	3	-10%	0.0
CCN(CC)S(=O)(=O)c1ccc(N2CCOCC2)c(NS(=O)(=O)c2cc(C(C)(C)C)ccc2C)c1	-25	-14	-3	6%	5.9
CCOC(=O)c1sc(=S)n(-c2ccc(C)cc2)c1N	/	4	-2	3%	-0.2
CC(NC(=O)c1ccc(=O)oc1)c1ccccc1 (stereo not given)	-45	-2	-7	-10%	-1.8
CC(C)CNC(=S)NNC(=O)c1csc2ccccc12	-24	7	-2	-3%	1.9
COc1ccc(N2CCN(CCOc3ccc4c(C)cc(=O)oc4c3)CC2)cc1	-32	-5	7	5%	1.1
CCc1nc2c(c(SC)nn2-c2ccccc2)c(N)c1C(=O)OC	-27	-3	11	3%	2.4
